Bioassay records from PubChem.
VDR inhibitor: blocks the human vitamin D receptor; P11473; actives 0.93% (n = 400,000); Potency, µM, without a hit: max response, negative = inhibition, most hits filed as inhibitors; VDR-SRC2-3 peptide fluorescence polarization, 2 h; AID 504847; active = well fitted inhibition curve with a large enough effect; inconclusive = small, poorly fitted or top-dose-only effect, or another doubt; inactive = no such curve, though single readings can be large or run the other way; also: series mostly up to about 120 µM
Target sequence (P11473 whole entry, looked up): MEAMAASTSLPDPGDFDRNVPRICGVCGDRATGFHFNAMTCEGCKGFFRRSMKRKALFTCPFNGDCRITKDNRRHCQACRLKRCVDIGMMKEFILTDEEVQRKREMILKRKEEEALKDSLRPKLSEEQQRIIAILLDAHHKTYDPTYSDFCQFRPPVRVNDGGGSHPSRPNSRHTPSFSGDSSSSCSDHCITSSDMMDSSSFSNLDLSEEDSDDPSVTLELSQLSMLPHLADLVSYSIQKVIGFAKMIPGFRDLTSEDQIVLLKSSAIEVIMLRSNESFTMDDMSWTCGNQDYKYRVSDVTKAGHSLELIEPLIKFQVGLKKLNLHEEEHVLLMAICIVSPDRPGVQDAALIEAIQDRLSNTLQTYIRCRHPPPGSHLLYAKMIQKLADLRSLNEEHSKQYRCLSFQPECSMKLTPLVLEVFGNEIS
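FP read-out; VDR + SRC2-3 coactivator peptide; 23 nl compound by pintool; 2 h RT incubation; reagents held at 4 deg C, protected from light.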
* = called active by the depositor; ? = inconclusive; & = joins results of further samples. % is scaled to controls: 0 for no effect and ±100 for the full control effect; potency is read from the fitted curve at half-maximal effect. Only part of the results is shown; rates above refer to the full screens.

| structure | VDR inhibitor |
| --- | --- |
| COc1ccc(OC)c(S(=O)(=O)NCCc2csc(-c3cccc(F)c3)n2)c1 | 13% |
| O=c1[nH]ncc(N2CCCC2)c1Cl | 12% |
| CC(C)c1cc(C(=O)N2CCCC(N3CCN(c4ccc(F)cc4)CC3)C2)n(C)n1 (stereo not given) | -1% |
| CCc1ccc(CN2C(=O)c3ccccc3C2C(=O)NCCc2ccc(OC)c(OC)c2)cc1 (stereo not given) | 6% |
| COc1ccc(NC(=O)CCCn2cc([N+](=O)[O-])cn2)cc1 | -5% |
| CC(NC(=O)c1ccccc1OC(F)F)c1ccc(-n2ccnc2)cc1 (stereo not given) | -12% |
| CCNC(=O)c1sc(=S)n(CC)c1N | -9% |
| CCC(CO)Oc1cc(NC(=O)c2cccc(C)c2)c2ncn(C(C)C)c2c1 (stereo not given) | -4% |
| N#CCCCSc1nnnn1-c1cccc(Cl)c1 | -1% |
| Cc1ccc(CN2CCN(Cc3c[nH]c4ccccc34)CC2CCO)o1 (stereo not given) | -28% |
| C=C1CCN([C@H](C(=O)O)C(C)C)S(=O)(=O)c2ccccc21 | -10% |
| CCN(CC)CCOC(=O)c1ccc(NC(=O)c2nn(C)c3c2COc2ccccc2-3)cc1 | 9% |
| Cc1ccc(S(=O)(=O)N2CCN(c3ncnc4ccccc34)CC2)cc1 | -5%&-7% |
| Cc1ccc(NC(=O)Cn2c(O)c(N=NS(=O)(=O)c3ccc(C)cc3)c3ccccc32)cc1 | ? |
| CCC1C(=O)N=C(SCC(=O)Nc2nc3ccccc3s2)NC1=O (stereo not given) | 15% |
| CCCc1cc(C(=O)Nc2nnc(C)s2)cs1 | -11% |
| CCOC(=O)C1CCN(S(=O)(=O)Cc2ccc(Cl)cc2)CC1 | 5% |
| COc1ccccc1N1CCN(C(=O)c2cc3cc(C)ccc3[nH]2)CC1 | 21% |
| Cc1cc(Cl)c2oc(C(=O)N3CCCCC3CCN3CCCC3=O)c(C)c2c1 (stereo not given) | -5% |
| O=C(C1CC1)N1CCc2sccc2C1c1ccc(Cl)cc1 (stereo not given) | -20% |

Further records follow.
| structure | VDR inhibitor |
| --- | --- |
| COc1cccc(OCc2nnc(SC)n2C)c1 | -13% |
| O=C(CN1CCCc2ccccc21)N/N=C/c1ccc(F)cc1F | 9% |
| O=C(O)Cc1csc(Nc2cccc(Cl)c2)n1 | 8% |
| COCCNC(=O)c1cccc(OC2CCN(Cc3cccc(C(C)=O)c3)CC2)c1 | 5% |
| CC(C)N(Cc1nccn1C)C(=O)CCc1nnc(CCCc2ccccc2)o1 | -11% |
| CC(=O)Nc1ccc(S(=O)(=O)N2CCC(C(=O)NC3CC3)CC2)cc1 | -1% |
| CC(=NCCN1CCOCC1)C1=C(O)c2ccccc2C1=O | -6% |
| CCS(=O)(=O)N1CC(=O)N(c2cccc(C)c2C)C(C)(C(=O)NC2CCCCCC2)C1 (stereo not given) | 19% |
| Cc1ccc(C(=O)Nc2ccc(N3CCN(C)CC3)nc2)cc1 | 11% |
| CC(=O)c1ccc(S(=O)(=O)Nc2cccc(-c3ccc4nncn4n3)c2)cc1 | 7% |
| Nc1c(N=Nc2ccccc2F)c(=O)[nH]n1-c1ccccc1 | -19% |
| Cc1ccc(-n2c(=O)c3sc4ccccc4c3n(CC(=O)NC3CCCC3)c2=O)cc1C | 4% |
| Cc1nnc(SCC(=O)Nc2cccc(Cl)c2)n1CC1CCCO1 (stereo not given) | -4% |
| CCN(CC)C(=O)Cn1ccc(NC(C)=O)nc1=O | -3% |
| Cc1nn(C)c(Sc2ccccc2N)c1[N+](=O)[O-] | ? |
| CC(=NNC(=O)c1ccc(NS(=O)(=O)c2ccc(Br)cc2)cc1)c1cccnc1 | -6% |
| Cc1cccc(N2CCN(C(=O)C3CCN(S(=O)(=O)c4c(C)noc4C)CC3)CC2C)c1 (stereo not given) | 16%&-7% |
| O=S(=O)(NC1CCN(S(=O)(=O)c2c(F)cccc2F)C1)c1ccc2c(c1)OCCO2 (stereo not given) | -1% |
| O=S1(=O)CCN(c2ccccc2CC(c2c[nH]c3ccccc23)c2c[nH]c3ccccc23)CC1 | 0% |
| Cc1ccc(NC(=O)CCS(=O)(=O)c2cccc3nonc23)c(C)c1 | 4% |

The listing continues.
| structure | VDR inhibitor |
| --- | --- |
| COCCCNC(=O)c1cccc(OC)c1OC | 5% |
| O=C(CCCCCn1c(=O)[nH]c2ccccc2c1=O)NCc1cccc(Cl)c1 | 4% |
| COc1cc(NS(=O)(=O)c2ccc(NC(=O)C(C)Oc3ccc(Cl)cc3Cl)cc2)nc(OC)n1 (stereo not given) | -3% |
| CC1=C(C(=O)Nc2ccc([N+](=O)[O-])cc2)C(c2cccc(C(F)(F)F)c2)NC(=S)N1c1ccccc1 (stereo not given) | -6% |
| c1cc(-c2noc(CC3CCCCC3)n2)ccn1 | 13% |
| CC(C)c1ccccc1NC(=O)c1ccc2ncsc2c1 | ? |
| O=C(C[n+]1cccc(CNC(=O)c2ccc(OC(F)F)cc2)c1)Nc1ccc(SC(F)F)cc1 | -12% |
| CC(=O)NCCNC(=O)c1ccc(NC2=NC3CS(=O)(=O)CC3S2)cc1 (stereo not given) | -2% |
| Cc1cccc(-n2nnc(-c3nc(-c4cccs4)no3)c2N)c1C | 6% |
| CCCCCn1c(=O)[nH]c2cc(C(=O)N3CCN(C(=O)OCC)CC3)ccc2c1=O | 9% |
| CC(C)OC(=O)[C@@H]1CC[C@H](C)[C@@H](CCCCO)O1 | -2% |
| O=C(OCC(=O)N1CCN(c2ccccc2)CC1)c1ccccc1[N+](=O)[O-] | 1% |
| CCOc1ccc(C(c2c(O)cc(C)n(CCOC)c2=O)N2CCN(c3ccc(F)cc3)CC2)cc1 (stereo not given) | -12% |
| Cn1nc(-c2ccccc2)c(C(=O)Nc2ccc(C(F)(F)F)cc2)c1Cl | 1% |
| Cc1ccc(Cc2nc3ccccc3nc2SCC(=O)NCc2ccccc2Cl)cc1 | 9% |
| O=C(CCN1CCCO1)N1CCCC(N2CCN(c3ccccc3F)CC2)C1 (stereo not given) | -4% |
| O=C(Cn1ncc2c([nH]c3ccccc32)c1=O)NCCCN1CCN(c2ccc(F)cc2)CC1 | 12% |
| Cc1cc(C)n(-c2c(F)c(F)c(COC(=O)c3ccccc3)c(F)c2F)n1 | 6% |
| CCOc1ccccc1CN(CCc1ccc2c(c1)OCO2)Cc1ccccn1 | -13% |
| Cc1ccc(/C=N/NC(=O)c2ccncc2)o1 | -3% |

Following part:
| structure | VDR inhibitor |
| --- | --- |
| Cc1cc(Nc2ccc(Cl)cc2)n(-c2ccccc2)n1 | 1% |
| CC(C)CC(OC(=O)c1ccco1)C(=O)NCC1CCCO1 (stereo not given) | 5% |
| N#CCN(N=Nc1ccccc1)c1ccccc1 | 6% |
| CC(=O)N1[C@H](Cc2ccccc2)C=C[C@]1(C)C(=O)NCc1ccccn1 | -3% |
| CC(Oc1ccccc1)C(=O)NNS(=O)(=O)c1ccc([N+](=O)[O-])cc1 (stereo not given) | 8% |
| COc1ccc(-c2c(C)oc3ccc(C)cc23)cc1 | -9% |
| O=C(Cc1ccccc1F)Nc1ccc(S(=O)(=O)Nc2ncccn2)cc1 | -18% |
| C[C@@]12CCC3[C@@](CCC4[C@@]3(C)CCC[C@@]4(C)C(=O)N3CCCCC3)(CC1=O)C2 (stereo not given in full) | 4% |
| O=[N+]([O-])/C=C/c1ccc2c(ccn2Cc2ccccc2)c1 | 6.3µM* |
| O=C(Nc1cccc(-c2cscn2)c1)C1CCN(Cc2ccsc2)CC1 | 6% |
| CN1C(=O)c2ccccc2N(C)C1c1ccc2c(c1)OCO2 (stereo not given) | 10% |
| Cc1cccc(OCC(=O)N/N=C/c2ccc(N(C)C)cc2)c1 | 5% |
| O=C(C1CCCN(S(=O)(=O)c2cccs2)C1)N1CCN(c2cccc(Cl)c2)CC1 (stereo not given) | -6% |
| O=C(CCc1ccccc1)NNC(=S)NCCc1ccccc1 | 5% |
| COc1ccc(N2CC(C(=O)Nc3ccc(NC(C)=O)cc3)CC2=O)cc1 (stereo not given) | -19% |
| CCc1ccc(NC(=O)Nc2ccon2)cc1 | -7% |
| CCCS(=O)(=O)N1CCC(C(=O)N2CCC(Cc3ccccc3)CC2)CC1 | -8% |
| COc1ccc(/C=C2\SC(=S)N(CCCCCC(=O)Nc3cc(C)on3)C2=O)cc1OC | -5% |
| Cc1ccc(/C=C2\Oc3c(ccc(O)c3CN3CCN(CCO)CC3)C2=O)cc1 | 2% |
| Nc1ncnc2c1ncn2[C@@H]1O[C@H](CNCc2ccc(OCc3ccccc3)cc2)[C@@H](O)[C@H]1O | -19% |

Further records.
| structure | VDR inhibitor |
| --- | --- |
| N#CC1=C(N)NC(SCc2ccc(F)cc2)=C(C#N)C12CCCCC2 | 2% |
| COc1ccc(NC(=O)Cn2cc(C#N)c3ccccc32)cc1 | -7% |
| COc1ccc(C(=O)Nc2ccc(S(=O)(=O)Nc3nccc(C)n3)cc2)cc1OC | -1% |
| COc1ccc(CC(=O)O/N=C(\N)c2ccncc2)cc1 | 14% |
| CC(=O)Nc1ccc(NC(=O)c2cc([N+](=O)[O-])cc([N+](=O)[O-])c2)cc1 | -2% |
| COc1cc(C=CC(=O)c2cc(OC)c(OC)c(OC)c2)cc(OC)c1OC | ? |
| Cc1cccc(/C(N)=N/OC(=O)c2ccncc2)c1 | 1% |
| CC(C)C(CCNCc1ccccn1)c1ccc(Cl)cc1 (stereo not given) | ? |
| COCCNC(=O)C(c1ccncc1)N(Cc1ccccc1)C(=O)Cn1nnc2ccccc21 (stereo not given) | 17% |
| Cc1cccc(OCC(=O)NNC(=O)CCN2CCN(c3ccccc3)CC2)c1C | 12% |
| Cc1ccc(C(=O)OCC(=O)N2CCCCCC2)cc1S(=O)(=O)N1CCOCC1 | -12% |
| Cc1oc(=O)cc(OCc2ccccc2)c1C | ? |
| CC(C)NCC(=O)C12CC3CC(CC(C3)C1)C2 | -13% |
| COc1ccc(OC)c(S(=O)(=O)N2CCCC2C(=O)NC(C)c2ccccc2)c1 (stereo not given) | -14% |
| Cc1ccc(NC(=O)Nc2cccc([N+](=O)[O-])c2)cc1F | 10% |
| CCSc1ccccc1C(=O)Nc1ccc(-c2nc3ccccc3s2)c(O)c1 | 7% |
| COc1ccccc1NC(=O)C1=C(C)NC2=C(C(=O)CCC2)C1c1ccc(C)o1 (stereo not given) | 2% |
| CCCNc1nc2c(c(=O)n(C)c(=O)n2C)n1CCCc1ccccc1 | 13% |
| CC1CC(C)CN(C(=O)COC(=O)C2CCN(S(=O)(=O)c3ccc4c(c3)OCCO4)CC2)C1 (stereo not given) | -13% |
| COc1ccc(OC)c(NC(=O)c2cc(-c3ccc(C)cc3O)n[nH]2)c1 | 8% |

Looked up by structure from the list above (5):
| structure | VDR inhibitor |
| --- | --- |
| Cc1oc(=O)cc(OCc2ccccc2)c1C | ? |
| COc1ccc(CC(=O)O/N=C(\N)c2ccncc2)cc1 | 14% |
| COc1ccc(OC)c(S(=O)(=O)N2CCCC2C(=O)NC(C)c2ccccc2)c1 (stereo not given) | -14% |
| Cc1cccc(/C(N)=N/OC(=O)c2ccncc2)c1 | 1% |
| CCCNc1nc2c(c(=O)n(C)c(=O)n2C)n1CCCc1ccccc1 | 13% |

Other entries follow.
| structure | VDR inhibitor |
| --- | --- |
| Cc1cc([N+](=O)[O-])ccc1NC(=O)Cc1ccc(F)cc1 | -9% |
| O=C(Oc1ccc2c(c1)OCO2)c1cc2c(s1)CCC2 | -2% |
| Cc1ccc(C(=O)Nn2cnc3scc(-c4cccs4)c3c2=O)c(O)c1 | 2% |
| Cn1ncc(Br)c1C(=O)NC12CC3CC(CC(C3)C1)C2 | -7% |
| COc1ccc(/C=C/C(=O)NC(=S)NCCc2ccc(OC)c(OC)c2)cc1 | -11% |
| OCCN1CCN(c2ncnc3nc[nH]c23)CC1 | -21% |
| CCC(=O)NC(=S)Nc1ccc(S(=O)(=O)NC(C)C)cc1 | 0% |
| CN(C(=O)CCN1C(=O)c2ccccc2C1=O)C1CCCCC1 | 0% |
| COc1ccc(S(=O)(=O)N(Cc2ccccc2)Cc2nc(-c3ccccc3)no2)cc1 | 10% |
| NS(=O)(=O)c1ccc(CNC(=S)NCc2ccc(F)cc2)cc1 | -1% |
| O=C(CSc1ncnc2sc3c(c12)CCCC3)c1ccco1 | -8% |
| Cc1ccc(S(=O)(=O)N(CC(=O)Nc2cccc(N(C)S(C)(=O)=O)c2)c2ccc(Cl)c(Cl)c2)cc1 | 7% |
| CCOC(=O)CSc1nnc(CCCCCN2C(=O)c3cccc4cccc(c34)C2=O)o1 | -5% |
| COc1ccc(NC(=O)/C(=C/c2cccnc2)NC(=O)c2cccs2)cc1 | -2% |
| O=CNc1ccccc1Oc1ccccc1 | 13% |
| Cc1ccc(C)c(NC(=O)c2ccc(CN3CC(=O)N4CCCCC4C3=O)cc2)c1 (stereo not given) | 17% |
| COCC(C)NC(=O)CCc1nnc(C2(c3ccc(Cl)cc3)CCC2)o1 (stereo not given) | 10% |
| CC(C)(C)OC(=O)N[C@@H](Cc1ccccc1)C(=O)NCC1CCC(C(=O)N[C@@H](CCC(N)=O)C(=O)O)CC1 (stereo not given in full) | 0% |
| Cc1ccc(Oc2nc3c(c(=O)n(Cc4ccccc4Cl)c(=O)n3C)n2C)cc1C | 6% |
| CCCOc1ccc(NC(=O)CNC(=O)c2cc(OC)cc(OC)c2)cc1OCCC | 4% |

Grouped by structure, those above containing bromine.
| structure | VDR inhibitor |
| --- | --- |
| CC(=NNC(=O)c1ccc(NS(=O)(=O)c2ccc(Br)cc2)cc1)c1cccnc1 | -6% |
| Cn1ncc(Br)c1C(=O)NC12CC3CC(CC(C3)C1)C2 | -7% |

(listing goes on)
| structure | VDR inhibitor |
| --- | --- |
| CCC(=O)Nc1nnc(-c2ccc(OC)cc2)o1 | 6% |
| COC(=O)[C@@H]1Cc2c([nH]c3ccccc23)C(C)(C)N1C(=O)CCl | -2% |
| O=C(NCc1ccccc1OC(F)(F)F)C1CCC(=O)N(C2CC2)C1 (stereo not given) | 8% |
| Cc1cccc(OCC(=O)N2CCOCC2)c1 | 10% |
| COc1ccccc1CCC(=O)Nc1cccc(S(=O)(=O)N2CCCCCC2)c1 | -6% |
| CCOc1ccc(S(=O)(=O)c2cn(CC)c3ccc(F)cc3c2=O)cc1 | 15% |
